From PubChem BioAssay
Choline anaer gr = inhibitors of anaerobic choline-dependent gram-negative bacterial growth; Gram-negative bacterium anaerobic choline minimal medium, absorbance growth; stronger effect = lower value; many inactives read as strong as hits in the columns shown; calls only; hit rate 0.2% among 55,000; AID 1963822;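 active = growth z-score on choline under -2 at 7 or 20 h with little or no fall on glycerol, limits in tiers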;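 also: stock transfer was 300 nL into about 50 µL; the organism is E. coli; final concentration not given here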
Choline anaer gr early = also measured in Choline anaer gr; calls as there; z-score; measured here: choline growth z-score, timepoint 1;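 score of optical density at 7 h as mean of two plates; lower means less growth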
* marks the source's active call; other numbers are inactive results; i = inactive.

structure | Choline anaer gr | Choline anaer gr early
CCCNC(=O)Cc1c(C)[nH]n(-c2nc(C)c(C)s2)c1=O | i | -1.7
CCn1c(=O)c(N2CCC(C(=O)NCc3ccc(C)cc3)CC2)nc2cccnc21 | i | 1.4
COc1cccc(-c2noc(-c3cc(N4CCN(C)CC4)nc4ccccc34)n2)c1OC | i | 0.33
COc1ccc2cc(C(=O)N3CCC(CC(=O)NCCc4c[nH]c5ccc(C)cc45)CC3)[nH]c2c1 | i | -0.9
CCCCn1c(CN2CCC(C)CC2)nc2cc(NC(=O)C3CCCCC3)ccc21 | i | -1.9
COc1ccc(-c2csc(NC3=NS(=O)(=O)c4ccccc43)n2)cc1OC | i | 0.51
CCN(Cc1ccccc1)c1ncc(NS(=O)(=O)c2ccc(F)cc2)cc1C(=O)O | i | -0.97
CCS(=O)(=O)Nc1ccc(C2(C(=O)NC3CCCC3)CCC2)cc1 | i | -0.32
COc1ccccc1NS(=O)(=O)c1c(C)nn(-c2ccc(-c3ccc(C)cc3)nn2)c1C | i | 0.45
COc1cccc(CNC(=O)C2CCCN(C(=O)c3cc(C)cc(C)c3)C2)c1 (stereo not given) | i | -0.56
CCc1ccc(NC(=O)N2CCN(c3nc4cccnc4n(Cc4ccccc4)c3=O)CC2)cc1 | i | 0.95
O=c1ccc2cc(S(=O)(=O)NCCN3CCCC3)ccc2[nH]1 | i | 0.89
O=C(NC1CCCCC1)N1CCc2cc(S(=O)(=O)NC3CC3)ccc21 | i | 0.22
CN1CCCc2cc(C(CNC(=O)c3ccc(Br)cc3)N3CCCC3)ccc21 (stereo not given) | i | 0.13
Cc1ccc(OCc2cc(=O)n3c(C)csc3n2)cc1 | i | 0.39

Additional results:
structure | Choline anaer gr | Choline anaer gr early
O=C(O)C1CCN(c2nccn3nc(-c4ccc(F)cc4)cc23)CC1 | i | 1.3
CN1C(=O)Cc2cc(S(=O)(=O)N3CCN(C(c4ccccc4)c4ccccc4)CC3)ccc21 | i | -1.4
O=C(c1ccccc1Cl)N1CCN(c2cc(=O)n3nc(-c4ccccc4)sc3n2)CC1 | i | 1.1
COc1ccc2cc1Oc1ccc(cc1)C[C@H]1c3cc(c(OC)cc3CCN1C)Oc1c(OC)c(OC)cc3c1[C@H](C2)N(C)CC3 | i | 0.68
O=c1c2cc(-c3cccs3)nn2ccn1Cc1noc(CN2CCCCCCC2)n1 | i | 1
Cc1cc(Cl)ccc1NC(=O)C1CCCN1S(=O)(=O)c1ccc2c(c1)CCCC(=O)N2 (stereo not given) | i | -1.7
COc1c(N2CC3CCCNC3C2)c(F)cc2c(=O)c(C(=O)O)cn(C3CC3)c12 (stereo not given) | i | -2.4
Cc1nn(C)c(C)c1CNC(=O)NCc1ccc(F)cc1 | i | -0.07
Cc1noc(-c2nn(C)c3c2CN(C(=O)c2cc4c(s2)CCCC4)CC3)n1 | i | -1.3
CCOC(=O)C1CCN(C(=O)c2csc(Nc3ccc(C)cc3)n2)CC1 | i | -0.86
CN(c1ccccc1)S(=O)(=O)c1ccc(N2CCCCS2(=O)=O)cc1 | i | -1.6
Cc1ccc(C(C)C)c(OCc2nc3ccc(C)cc3[nH]2)c1 | i | 1.9
O=c1[nH]c(SCc2ccccc2)nc2c1CN(Cc1ccccc1)CC2 | i | 0.68
CCCCC[C@@H](O)CC[C@H]1[C@H](O)CC(=O)[C@@H]1CCCCCCC(=O)O | i | -0.22
Cc1csc2ncc(C(=O)N3CCN(c4ccc(Cl)cc4)CC3)c(=O)n12 | i | 0.12

(more compounds)
structure | Choline anaer gr | Choline anaer gr early
COc1cccc(C(=O)NC(c2ccccc2)c2nnc(-c3ccc(Cl)cc3)o2)c1 (stereo not given) | i | 0.28
COCCOC(=O)c1cc2c(C)nn(-c3cccc(F)c3)c2s1 | i | 0.95
CCC(C(=O)NCCc1c[nH]c2ccccc12)n1nc(C)c2nn(-c3ccccc3)c(C)c2c1=O (stereo not given) | i | 0.35
Cc1nn(CCCC(=O)Nc2ccc(Cl)cc2)c(=O)c2nn(-c3ccccc3)c(C)c12 | i | 1.5
Cc1ccc(Cl)cc1NC(=O)CNS(=O)(=O)c1cc(-c2noc(C3CCC3)n2)cs1 | i | -1.1
O=C(CC(=O)Nc1ccccn1)Nc1ccc2nc3n(c(=O)c2c1)CCCCC3 | i | -1.3
C=CCOc1ccc(C2CC(=O)Nc3c2c(-c2ccccc2)nn3-c2ccccc2)cc1 (stereo not given) | i | 2.1
Cc1ccccc1OCc1nn2c(C(C)(C)C)nnc2s1 | i | 0.02
COc1cccc(-c2csc(Cc3nc(-c4ccc(Cl)cc4)no3)n2)c1 | i | 1.8
CCCn1cnc2nc(CSc3ccccc3NC(=O)Nc3ccc(C)cc3Cl)cc(=O)n21 | i | -0.22
Cc1ccc(/C=C/c2onc(C)c2S(=O)(=O)N2CCCC(C(=O)NC3CCCCC3)C2)cc1 (stereo not given) | i | 0.39
CCC1Cn2c(C(=O)N3CCN(c4ccc(F)cc4)CC3)cc3c(Cl)ccc(c32)O1 (stereo not given) | i | 0.52
COc1ccc(NC(=O)CN(C)S(=O)(=O)c2ccc3c(c2)C(=O)NCC(=O)N3)cc1 | i | -0.01
CCNC(=O)C1CCCN(c2nc3ncn(CC(=O)N4CCc5ccccc5C4)c(=O)c3s2)C1 (stereo not given) | i | 0.47
Cc1noc(C)c1S(=O)(=O)N1CCCC(c2nc(CNC(=O)C3CC3)cs2)C1 (stereo not given) | i | -1.8

The list goes on; it opens with the 5 that closed the last part.
structure | Choline anaer gr | Choline anaer gr early
Cc1ccc(/C=C/c2onc(C)c2S(=O)(=O)N2CCCC(C(=O)NC3CCCCC3)C2)cc1 (stereo not given) | i | 0.39
CCC1Cn2c(C(=O)N3CCN(c4ccc(F)cc4)CC3)cc3c(Cl)ccc(c32)O1 (stereo not given) | i | 0.52
COc1ccc(NC(=O)CN(C)S(=O)(=O)c2ccc3c(c2)C(=O)NCC(=O)N3)cc1 | i | -0.01
CCNC(=O)C1CCCN(c2nc3ncn(CC(=O)N4CCc5ccccc5C4)c(=O)c3s2)C1 (stereo not given) | i | 0.47
Cc1noc(C)c1S(=O)(=O)N1CCCC(c2nc(CNC(=O)C3CC3)cs2)C1 (stereo not given) | i | -1.8
COc1ccccc1Oc1cc(-c2cccc(C(=O)Nc3ccc(F)c(Cl)c3)c2)ncn1 | i | 1.2
Cc1cccc(-c2nccc(Oc3cccc(C(=O)NCCc4ccccc4)c3)n2)c1 | i | 0.65
O=c1c2c(nc3nc(CNc4ccc(Br)cc4)[nH]n13)CCC2 | i | -0.4
CC(C)Cc1nnc2sc(-c3cnccn3)nn12 | i | 0.46
CCc1cccc(NC(=O)CN(C)S(=O)(=O)c2ccc3nc(-c4ccccc4)[nH]c3c2)c1 | i | 0.78
CCCCn1c(C(C)N2CCCC2)nc2ccccc21 (stereo not given) | i | -1.9
Cc1ncsc1CN1CCC(C(O)c2ccccc2)CC1 (stereo not given) | i | -0.23
CC(C)NC(=O)Cc1ccc(-n2c(=O)c3ccccc3n(CC(=O)Nc3ccc4c(c3)OCO4)c2=O)cc1 | i | -0.29
CCCc1cc(C2CCCN2C(=O)NCC2CCC(C(=O)OCC)CC2)no1 (stereo not given) | i | -0.41
Cc1nc(-c2cc(NC(=O)COc3ccc(Cl)cc3)c(C)s2)no1 | i | -0.58
CC1Oc2ccccc2C(=O)N(CC(=O)c2cccc(S(=O)(=O)N(C)C)c2)C1=O (stereo not given) | i | -1
Cc1cn2c(=O)cc(COc3cccc(NC(=O)C(C)Oc4ccccc4)c3)nc2s1 (stereo not given) | i | 0.61
COc1ccc(NC(=O)N2CCCC2c2nnc(C(=O)Nc3cccc(F)c3)s2)cc1OC (stereo not given) | i | 0.35
CCOc1ccc(C2C3=C(CC(c4ccccc4O)CC3=O)Nc3onc(C)c32)cc1 (stereo not given) | i | -1.7
O=C(NC1CCCC1)c1nc(N2CCCCC2)c2oc3ccccc3c2n1 | i | 0.06

(cont.)
structure | Choline anaer gr | Choline anaer gr early
O=C(Cn1cc(S(=O)(=O)Cc2ccc(F)cc2)c2ccccc21)N1CCc2ccccc2C1 | i | 0.18
CC1=C(C(=O)Nc2ccccc2)C(c2ccc(C(=O)O)cc2)n2ncnc2N1 (stereo not given) | i | 0.69
Cc1nn(-c2ccc(F)cc2)c2sc(C(=O)NC3CCCCC3)cc12 | i | -1.2
O=C(NC1CCCCC1)C1CCN(C(=O)c2cccn2-c2cccnc2)CC1 | i | 0.22
O=C(CCc1nc(N2CCCCC2)c2c(-c3ccc(F)cc3)noc2n1)NCc1ccc(Cl)cc1 | i | 0.37
Cc1cccc(-c2nc3nc(C)cc(Nc4cccc5nsnc45)n3n2)c1 | i | 0.63
CCn1nnc2c(NCCCOC(C)C)ncnc21 | i | -0.85
O=c1cc(CN2CCN(CCO)CC2)nc2nc(-c3ccccc3)[nH]n12 | i | 0.68
C=Cc1ccc(Cn2nc3n(Cc4ccccc4)c(=O)c4ccc(C(=O)NC5CCCC5)cc4n3c2=O)cc1 | i | 0.6
CN(Cc1ccccc1)C(=O)CSc1nc(-c2ccccc2)nc2cc(=O)[nH]n12 | i | -0.05
CC1CCN(c2ccc(-c3ccc(NS(=O)(=O)c4ccc5c(c4)OCCO5)cc3)nn2)CC1 | i | -0.26
O=C(NCCc1ccccc1)Nc1ccc(CCc2nc3ccccc3[nH]2)cc1 | i | -0.33
Cc1nn(C)c(C)c1CCCN(C)c1ccc(NC(=O)c2ccc(Br)cc2)cc1C(=O)O | i | 0.61
CC(=O)Nc1ccc2nc(N3CCC(C(=O)N4CCN(C)CC4)CC3)cc(C)c2c1 | i | -2.8
Cc1cc(NC(=O)C2CCCN(S(=O)(=O)c3cc(-c4noc(C5CCCC5)n4)cs3)C2)no1 (stereo not given) | i | 0.72

Later entries
structure | Choline anaer gr | Choline anaer gr early
CCC(C)NC(=O)Cn1cc(-c2nc(-c3ccccc3C)no2)c(=O)c2ccc(C)nc21 (stereo not given) | i | 1.2
Cn1c(-c2nnc(SCC(=O)NCc3ccccc3)o2)cc2ccccc21 | i | 0.98
CC1=C(c2ccc(C)c(C)c2)S(=O)(=O)N(Cc2ccc(C(=O)NCc3cccc(C)c3)cc2)C1=O | i | 0.44
COc1cccc(NC(=O)CSCc2nc(-c3ccc(Cl)cc3)no2)c1 | i | 0.71
CCOC(=O)c1cc2n(n1)CC(C)(C(=O)NC1CCCC1)N(c1ccc(NC(C)=O)cc1)C2=O (stereo not given) | i | 0.08
CCCCC/C=C\C/C=C\CCCCCCCC(=O)O | i | 0.59
Cc1ccc(Cn2cc(C(=O)Nc3cc(F)ccc3F)ccc2=O)cc1 | i | 0.24
Cc1nc(N2CCCCC2)nc2c1C(=O)CC(C)C2 (stereo not given) | i | 0.55
O=C(NCCN1CCOCC1)C1CCCN(c2nc3ncccc3n3cccc23)C1 (stereo not given) | i | -2.4
Cc1ccc(-c2cc3ncc(C(=O)c4cc(Cl)c(C)cc4O)cn3n2)cc1 | i | -0.7
CNc1ncccc1-c1nc(-c2ccc(C)cc2)no1 | i | -0.34
Cc1ccc(CNC2=NCCCNC23CCC(C)CC3)cc1 (stereo not given) | i | -0.6
CCCn1c(=O)c2sccc2n2c(CCC(=O)NC3CCCCC3)nnc12 | i | -0.92
NC(=O)c1ccc2[nH]c(CSc3ncn[nH]3)cc(=O)c2c1 | i | -1.3
Cn1c(=O)n(CC(=O)O)c(=O)c2c1nc1n2CCCN1c1ccc(Cl)cc1 | i | 0.69

(further entries)
structure | Choline anaer gr | Choline anaer gr early
Cc1nn(-c2cc(N3CCCCC3)ncn2)c(C)c1CCC(=O)NC1CCCCC1 | i | 0.12
Cc1cccc(CNC(=O)CCC(=O)N2Cc3cccn3-c3ccccc32)c1 | i | -1.3
CCOC(=O)c1ccccc1NC(=O)Cn1nc2ccc(-c3ccc(Cl)cc3)nn2c1=O | i | 1
CCc1nnc2c3ccccc3nc(Nc3cc(OC)ccc3OC)n12 | i | 1
CN1C(=O)c2ccc(NC(=O)CCCc3nc(-c4ccccc4)no3)cc2C1=O | i | 0.81
CCOC(=O)C1CCN(c2cc3c(cc2NC(=O)NC2CCCC2)n(C)c(=O)n3C)CC1 | i | -1.1
Cc1nc(-c2ccc(C(=O)N3CCC(C(=O)N4CCOCC4)CC3)cc2)no1 | i | 0.23
COCCNS(=O)(=O)c1cc(C(=O)N2CCCC2)cs1 | i | 0.45
COc1ccc(C(=O)Nc2sc3c(c2C(N)=O)CCCC3)cc1OC | i | 0.96
CCc1noc2ncnc(NCCC3=CCCCC3)c12 | i | -0.67
CCC(=O)Nc1nc2ccc(Cl)cc2o1 | i | -3.9
NC(=O)c1cccn1Cc1ccccc1Cl | i | -1.7
CCOC(=O)c1c(C)[nH]c(C(=O)N2CCCC(C(=O)NCCN3CCCC3)C2)c1C (stereo not given) | i | -1.5
Cc1ccc2[nH]cc(CCNC(=O)c3ccc(Cl)c(-n4c(C)nc5cccnc54)c3)c2c1 | i | -0.32
Cc1ccc(-c2cc3nc(C)cc(N4CCC(C(=O)NCc5ccccc5Cl)CC4)n3n2)cc1 | i | -0.87

Further structures
structure | Choline anaer gr | Choline anaer gr early
CN1C(=O)C(C)(C)c2cc(S(=O)(=O)N(C)CC(=O)N3CCCC3)ccc21 | i | 0.86
CCSc1nc2ccc(NS(=O)(=O)c3ccc4c(c3)CCC4)cc2s1 | i | 0.45
COCCN(CCC(=O)N1CCNCC1)C(=O)c1cccc(OC)c1 | i | -1.2
CCN(CC)S(=O)(=O)c1ccc(C(=O)Nc2nc(-c3ccccn3)cs2)cc1 | i | 0.2
CCc1ccc(S(=O)(=O)Nc2c(-n3cnnc3)nn(C)c2C)cc1 | i | 0.22

Of the compounds above, these have bromine:
structure | Choline anaer gr | Choline anaer gr early
CN1CCCc2cc(C(CNC(=O)c3ccc(Br)cc3)N3CCCC3)ccc21 (stereo not given) | i | 0.13
O=c1c2c(nc3nc(CNc4ccc(Br)cc4)[nH]n13)CCC2 | i | -0.4
Cc1nn(C)c(C)c1CCCN(C)c1ccc(NC(=O)c2ccc(Br)cc2)cc1C(=O)O | i | 0.61

This is a subset (hit frequency here may not be typical).
